Screening results (PubChem)
VDR inhibitor: vitamin D3 receptor (human) inhibition; P11473; AID 504847; Potency, µM, for the others: max response, negative = inhibition, most hits filed as inhibitors; VDR-SRC2-3 peptide fluorescence polarization, 2 h; 0.93% of 400,000 active; active means well fitted inhibition curve with a large enough effect; inconclusive means small, poorly fitted or top-dose-only effect, or another doubt; inactive means no such curve, though single readings can be large or run the other way; further: series mostly up to about 120 µM
Target sequence (P11473 whole entry, looked up): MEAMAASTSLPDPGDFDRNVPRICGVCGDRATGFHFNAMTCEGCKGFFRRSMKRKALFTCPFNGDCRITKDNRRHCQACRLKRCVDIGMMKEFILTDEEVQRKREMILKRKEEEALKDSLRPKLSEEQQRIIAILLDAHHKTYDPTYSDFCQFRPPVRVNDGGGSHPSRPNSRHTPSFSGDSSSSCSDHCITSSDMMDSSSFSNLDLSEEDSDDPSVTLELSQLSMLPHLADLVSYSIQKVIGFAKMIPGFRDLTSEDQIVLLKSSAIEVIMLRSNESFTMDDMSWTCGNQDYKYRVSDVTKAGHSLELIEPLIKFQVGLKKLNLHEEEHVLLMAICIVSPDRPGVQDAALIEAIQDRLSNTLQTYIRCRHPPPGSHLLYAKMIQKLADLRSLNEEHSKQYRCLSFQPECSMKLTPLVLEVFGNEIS
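Reagent solutions, kept cold and dark, are dispensed first; compounds are then pinned in at 23 nl, plates briefly spun, and incubated 2 h at ambient temperature. Inhibition of VDR–SRC2-3 peptide binding is read by fluorescence polarization.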
* marks the source's active call; other numbers are inactive results; ? = inconclusive; & = joins results of further samples. On the % scale 0 is the no-effect control and ±100 the full control effect; potency means the concentration at half of the fitted maximal effect.

VDR inhibitor,mol
-19%,CC(=O)c1ccc(N2CCN(c3ccc(C(F)(F)F)cn3)CC2)cc1
-11%&7%,CCOC(=O)c1cnc2c(Cl)c(Cl)ccc2c1NCCN1CCOCC1
-20%,c1ccc(OCCOc2cccc3cccnc23)cc1
?,O/N=C/c1ccccc1Oc1ccc(Cl)cc1
-3%,O=C(Cn1nnc(-c2ccccc2Cl)n1)Nc1ccc(Br)cc1
27%,COCCSc1nc(N)c2c3c(sc2n1)CN(C)CC3
-10%,CN(C)C(=O)OCC1COc2ccccc2O1 (stereo not given)
1%,CCCCOc1ccc(N(CC(=O)NC2CCCC2)C(=O)CCC(=O)Nc2ccccn2)cc1
-10%,Cc1c(Cl)cccc1NC(=S)N(CCCN1CCOCC1)Cc1cccs1
-24%,CNC(=S)N1N=C(c2ccc(C)cc2)CC1c1ccc(N(C)C)cc1 (stereo not given)
4%,CCC(=O)Nc1cccc(C(=O)OCC(=O)c2ccccc2Cl)c1
14%,CC(C)(C)NC(=O)Cn1cc(S(=O)(=O)Cc2ccccc2Cl)c2ccccc21
-4%,CS(=O)(=O)c1cccc(-c2nnc(NC(=O)C3=COCCO3)o2)c1
0%,O=C1CSCN1c1cc(Cl)ccc1Cl
9%,CCC1C(=O)NCCN1Cc1nc(-c2ccc(C)s2)oc1C (stereo not given)
1%,O=C(NCCc1ccccc1)c1ccc(-n2cnnn2)cc1
-9%,CCOC(=O)N1CCC(NC(=O)C2=CCN(S(=O)(=O)c3ccc(OC)cc3)CC2)CC1
1%,O=C(CN1CC(=O)Oc2ccccc21)OCC(=O)c1ccccc1
-7%,Nc1nnnn1CC(=O)N/N=C/c1ccccn1
4%,C=CCOc1cc(C)nc(-c2ccccc2O)n1

Sorted by SMILES length (lowest first): part of the list above
VDR inhibitor,mol
-10%,CN(C)C(=O)OCC1COc2ccccc2O1 (stereo not given)
9%,CCC1C(=O)NCCN1Cc1nc(-c2ccc(C)s2)oc1C (stereo not given)
1%,O=C(CN1CC(=O)Oc2ccccc21)OCC(=O)c1ccccc1
4%,CCC(=O)Nc1cccc(C(=O)OCC(=O)c2ccccc2Cl)c1
-19%,CC(=O)c1ccc(N2CCN(c3ccc(C(F)(F)F)cn3)CC2)cc1
14%,CC(C)(C)NC(=O)Cn1cc(S(=O)(=O)Cc2ccccc2Cl)c2ccccc21
-9%,CCOC(=O)N1CCC(NC(=O)C2=CCN(S(=O)(=O)c3ccc(OC)cc3)CC2)CC1

Other compounds.
VDR inhibitor,mol
-4%,Nc1nc(Nc2ccc(Cl)cc2)n[nH]1
1%,COc1ccc(C2CC(c3ccccc3)=NN2S(=O)(=O)c2ccccc2)c(OC)c1 (stereo not given)
4%,CCOC(=O)C1=CCN(Cc2ccccc2)CC1
6%,CCCC1S/C(=N/N=C/c2cccs2)NC1=O (stereo not given)
10%,COC(=O)C(C)NC(=O)c1cn(-c2ccccc2OC)c(=O)c2ccccc12 (stereo not given)
-9%,CCOc1ccc(NC(=O)CC2C(=O)N(c3ccccc3)C(=O)N2Cc2ccc3c(c2)OCO3)cc1 (stereo not given)
4%,Cc1ccc(S(=O)(=O)N(C)/C(=N/S(=O)(=O)c2ccccc2)c2ccccc2)cc1
3%,Cc1cccc(OCC(=O)O/N=C(\N)c2ccccn2)c1C
-3%,Cc1ccc(C(=O)CC(C(=O)O)n2cccn2)cc1 (stereo not given)
2%,COc1cc(NC(=O)c2ccc3c(c2)OCO3)ccc1NC(=O)c1cccs1
-16%,CN(C)c1ccc(/C=C(\NC(=O)c2ccccc2)C(=O)NCCCN2CCOCC2)cc1
-6%,CCc1ccc(NC(=O)CSc2nc3c(oc4ccccc43)c(=O)n2-c2cccc(C)c2)cc1
8%,CCc1ccc(C(=O)CC2(O)C(=O)N(CN3CCOCC3)c3ccccc32)cc1 (stereo not given)
13%,CN1CCN(c2ccc(Cl)cc2NC(=O)c2cccc(S(=O)(=O)N(C)C)c2)CC1
1%,O=C(O)C1CSC(c2ccc(O)c([N+](=O)[O-])c2)N1 (stereo not given)
-3%,CN(C)/C=C1\C(=O)NN=C1C(F)(F)F
-5%,COc1ccc(C(=O)Nc2cc(C)nc3ccccc23)cc1OC
-1%,CCOc1ccccc1N1CCN(C(=O)c2cc[n+]([O-])cc2)CC1
2%,Cc1ccc(CNC(=O)c2sccc2-n2cccc2)cc1
-4%,COc1ccc(C(=O)Nc2ccc(-n3nncc3-c3ccccc3)cc2)cc1OC

(further entries)
VDR inhibitor,mol
-16%,O=c1oc2cc(O)ccc2cc1-c1nc2c(s1)CCc1ccccc1-2
-2%,Cc1cc([N+](=O)[O-])nn1CC(=O)NCc1ccco1
-9%,c1ccc(N2CCN(c3nc4ccccc4n4cnnc34)CC2)cc1
1%,CCCNC(=O)NC(=O)COC(=O)c1oc2ccc(OCC)cc2c1C
-16%,CC(=O)c1ccccc1NC(=O)CCCNC(=O)c1ccc(Cl)cc1
-7%,O=c1c(-c2n[nH]c(=S)o2)cccn1Cc1ccccc1
2%,COc1cc(OC)c(-c2cc(C(=O)NCc3ccc(F)cc3)c3c(-c4ccccc4)[nH]nc3n2)cc1OC
8%,CCOC(=O)CSc1nc2ccccc2c(=O)n1Cc1ccco1
-1%,CN(C)CC(O)COc1ccc(C(C)(C)c2ccc(OCC(O)CN(C)C)cc2)cc1 (stereo not given)
-5%,Cn1c(=O)[nH]c2ccc([N+](=O)[O-])nc21
-10%,O=C(O)C1CCN(C(=O)COc2ccc3c4c(c(=O)oc3c2)CCC4)CC1
-4%,CC1CN(C(=O)c2ccc3c(c2)OCO3)CC(C)O1 (stereo not given)
13%,COc1ccc(Nc2nc(N)nc(N)c2S(=O)(=O)c2ccccc2)cc1
8%,Cc1ccc(C)c2[nH]c(=O)c(CCNC(=O)c3cc4ccccc4o3)cc12
-8%,CCOc1ccc(C(=O)N2CCN(CC(=O)N3CCCC3)CC2)cc1OCC
6%,O=C(NCC1CCCO1)C(c1ccc(F)cc1)N(C(=O)Cn1nnc(-c2ccc(F)cc2)n1)c1cccc(O)c1 (stereo not given)
-25%,COC(=O)c1sccc1NC(=O)COc1cccc(C)c1
-7%,c1ccc2c(c1)CNc1ccccc1C2
0%,NC(=O)c1sc(=S)n2c1[nH]c(=O)c1sccc12
3%,COc1ccc(-n2nc3c(c2NC(=O)c2ccc(S(=O)(=O)N4CCOCC4)cc2)CS(=O)C3)cc1 (stereo not given)

Copied from the list.
VDR inhibitor with O=C(O)C1CCN(C(=O)COc2ccc3c4c(c(=O)oc3c2)CCC4)CC1 = -10%
VDR inhibitor with COc1ccc(C(=O)Nc2cc(C)nc3ccccc23)cc1OC = -5%
VDR inhibitor with c1ccc(OCCOc2cccc3cccnc23)cc1 = -20%

5 of the entries above in order of their number in VDR inhibitor, ascending:
structure | VDR inhibitor
COC(=O)c1sccc1NC(=O)COc1cccc(C)c1 | -25%
CC(=O)c1ccccc1NC(=O)CCCNC(=O)c1ccc(Cl)cc1 | -16%
c1ccc2c(c1)CNc1ccccc1C2 | -7%
Cn1c(=O)[nH]c2ccc([N+](=O)[O-])nc21 | -5%
COc1ccc(Nc2nc(N)nc(N)c2S(=O)(=O)c2ccccc2)cc1 | 13%

In the list so far, two contain a CF3 group:
VDR inhibitor,mol
-19%,CC(=O)c1ccc(N2CCN(c3ccc(C(F)(F)F)cn3)CC2)cc1
-3%,CN(C)/C=C1\C(=O)NN=C1C(F)(F)F

Next entries.
VDR inhibitor,mol
12%,CCCCC(=O)Nc1c(C)cc(C)cc1Cl
4%,CCc1ccc(Nc2nc(-c3cc4cccc(OC)c4oc3=O)c(CC)s2)cc1
-20%,CC1CCCCN1C(=O)C1CCCCN1S(=O)(=O)c1cccc([N+](=O)[O-])c1 (stereo not given)
-7%,COc1ccccc1OCC(O)Cn1c(Br)nc2c1c(=O)[nH]c(=O)n2C (stereo not given)
-16%,Cc1ccccc1CN1CCCC(C(=O)Nc2ccc(-c3ccn[nH]3)cc2)C1 (stereo not given)
-2%,Cn1c(Cc2ccccc2)[n+](C)c2ccccc21
-8%,Cc1cc(NC(=O)CSCC(=O)Nc2cc(C(F)(F)F)ccc2N2CCOCC2)no1
12%,CN(C)C(=O)CCc1ccc2c3c([nH]c2c1)[C@]1(C)[C@@H](C(=O)N2CCCCC2)C[C@H](CC(=O)NCC24CC5CC(CC(C5)C2)C4)C(=O)N1CC3
7%,CN1CCN(C(=S)Nc2ccccc2Cl)CC1
-6%,CC(NC(=O)c1ccco1)C(=O)OCc1cccc(C(F)(F)F)c1 (stereo not given)
21%,COc1ccc(OC)c(-n2c(-c3cccc(S(=O)(=O)N(C)C)c3)n[nH]c2=S)c1
-5%,O=C(NC(=Nc1ccccc1)N1CCOCC1)Nc1ccccc1
-11%,O=C(O)c1ccc(NS(=O)(=O)c2ccc3c(c2)C(=O)c2cc(S(=O)(=O)Nc4ccc(C(=O)O)cc4)ccc2-3)cc1
-1%,COc1ccc(-n2c(-c3ccco3)n[nH]c2=S)cc1
23%,CCOc1ccccc1NC(=O)/C=C/C(N)=O
-7%,O=C1c2ccccc2C(=O)N1CCCc1nc(-c2ccncc2)no1
8%,COc1ccc2c(c1)S/C(=C\C(=O)c1ccncc1)N2C
6%,CCOc1ccccc1N1CCN(C(=O)c2c(-c3ccccc3Cl)noc2C)CC1
-1%,Cc1ccc(N(CC(=O)NC2CCCCC2)C(=O)CNC(=O)c2ccco2)cc1F
-3%,Cc1ccc(NC(=O)Cn2c(C)csc2=O)cc1

Remaining list, next part:
VDR inhibitor,mol
17%,CCn1c(CN2CCC(C)CC2)nc2cc(NC(=O)COc3ccc(Cl)c(C)c3)ccc21
-2%&-9%,CCCCCCCCCCCCC/C=C/[C@@H](O)[C@H](CO)NCCCCCCCC
3%,O=C(C1CCC(=O)N(C2CCCC2)C1)N1CCN(c2ccc(Cl)cc2)CC1 (stereo not given)
-3%,CN(C(=O)COc1ccc(S(=O)(=O)N2CCOCC2)cc1[N+](=O)[O-])C1CCS(=O)(=O)C1 (stereo not given)
-7%,O=C(O)c1ccc2c(c1Nc1ccccc1)C(=O)c1ccccc1C2=O
17%,Cc1cc(C)cc(OCC(=O)NNC(=O)CCN2C(=O)c3ccccc3C2=O)c1
3%,CCC(=O)Nc1ccc(Nc2nc(C)c([N+](=O)[O-])c(Nc3ccc(NC(=O)CC)cc3)n2)cc1
?,Cc1ccc(Nc2nnc(SCC(=O)c3cc4ccccc4o3)s2)cc1C
7%,Cc1ccc(CN(Cc2ccco2)S(=O)(=O)c2ccc(S(=O)(=O)NCC3CCCO3)cc2)cc1 (stereo not given)
0%,CN1C(=O)c2ccc(NC(=S)NC(=O)C(C)(C)C)cc2C1=O
5%,O=C(C1CCCCC1)N(CCN1CCN(c2ccccc2CO)CC1)c1ccccn1
10%,CCn1nnc2cc(C(=O)Nc3cccc(C)c3C)ccc21
-1%,Cc1ccc(-c2nnc(Nc3cccc(O)c3)c3ccccc23)cc1S(=O)(=O)N1CCCCC1
-14%,COC(=O)c1ccc(NC(=S)Nc2ccccn2)cc1
-11%,Cc1nnc(SCCN2CCOCC2)n1C
7%,O=S(=O)(c1ccccc1Cl)N1CCC(O)(c2ccc3c(c2)OCO3)CC1
0%,CSCCC(NS(=O)(=O)c1ccccc1F)C(=O)NNC(=O)c1csc(N2CCOCC2)n1 (stereo not given)
5%,CCN(CCCNC(=O)CN1C(=O)COc2ccccc21)c1cccc(C)c1
-24%,CC1CCN(C(=O)Cn2cc3c(n2)CCCC3)CC1
-5%,CCOC(=O)c1cccc(-n2cccc2/C=C2\NC(=O)N(CC(=O)O)C2=O)c1

Other compounds follow:
VDR inhibitor,mol
-6%,O=C(O)c1nn(-c2cccc(C(F)(F)F)c2)ccc1=O
17%,CC(=O)/C(C(=N)N1CCN(Cc2ccccc2)CC1)=C(\C)O
-6%,CCOC(=O)c1c(C)sc2c1N(C(=O)CN(CC)CC)c1cc(Cl)ccc1S2
18%&4%,Cc1ccccc1C(=O)Nc1ccc2c(c1)CCCN2C(=O)c1cccs1
-8%,CCn1c(SCC(=O)N2CCCC2)nnc1-c1ccc(N)cc1
-15%,COc1cc(C2c3c(n[nH]c3C)C(=O)N2c2ccc(Br)cc2)ccc1O (stereo not given)
-24%,CCOC(=O)C(c1ccccc1)C(Nc1ccccc1)c1ccccn1 (stereo not given)
10%,CC(C)O/C(=N\S(=O)(=O)c1ccc(Cl)cc1)c1ccccc1
-5%,Cc1ccc(N(C(=O)CCC(=O)Nc2cc(C)on2)C(C(=O)NC2CCCC2)c2ccccc2)cc1 (stereo not given)
-4%,Cc1cc(C)n(-c2ccc(NC(=O)C3CCN(Cc4cc(C)c(C)o4)CC3)cc2)n1
-25%,Cc1ccccc1CNS(=O)(=O)c1c(C)[nH]c(C)c1C(=O)N1CCCCC1
8%,O=C(Nc1ccccc1F)c1ccc(S(=O)(=O)N2CCCCCC2)cc1
-12%,CC(C)C(NC(=O)c1c(F)cccc1F)C(=O)OCN1C(=O)c2ccccc2C1=O (stereo not given)
-5%,O=C(Nc1cccc2c1N(C(=O)c1ccco1)CCC2)c1ccco1
11%,CCc1ccccc1NC(=O)COc1ccc2c(=O)c(Oc3cc(C)ccc3C)coc2c1
6%,CCOc1ccccc1NC(=O)CCCNC(=O)c1ccc(Cl)cc1
1%,N#CC1=C(N)NC(SCC(=O)Nc2ccccc2)=C(C#N)C12CCCC2
-17%,COC(=O)c1ccccc1NC(=O)c1c(C)oc2ncn(C)c(=O)c12
-5%,Cc1ccc2nc(NCc3ccccc3)[nH]c2c1
13%,CC(C1CC1)N(C(=O)c1ccccc1[N+](=O)[O-])c1ccccc1 (stereo not given)

Further results.
VDR inhibitor,mol
-4%,Cn1cccc1C(=O)OCC(=O)Nc1ccc2c(c1)OCCO2
-14%,COc1ccccc1CNS(=O)(=O)c1ccc2c(c1)NC(=O)C(C)S2 (stereo not given)
-2%,O=C(CN(Cc1ccccc1Cl)C(=O)c1ccc(CN2CCOCC2)o1)NCc1ccccc1
-5%,Cc1sc2ncn(CC(=O)Nc3ccc(F)cc3F)c(=O)c2c1S(=O)(=O)N1CCC(C)CC1
-4%,Cc1cccc(C(=O)N2c3ccccc3C(=O)OC2c2ccc3c(c2)OCO3)c1 (stereo not given)
-4%,O=C(Nc1cc(Cl)cc(Cl)c1)c1cccc(OC(F)F)c1

Only part of the results is shown; the hit share may differ from the screen's.
